High-throughput results deposited in PubChem BioAssay by National Center for Advancing Translational Sciences (NCATS).
CtBP-E1A inh – blocks the CtBP interaction with E1A; activity change, % (no concentration beside the values); AlphaScreen GST-E1A/His-CtBP binding, 1536-well; stronger effect = lower value; control for the full effect not named in the record; 340,000 compounds, 0.49% hits; in the data active means activity change below about -65%; inconclusive means about -30% to -65%; inactive means above about -30%; note: % is set by controls: 0 for no effect and ±100 for the full control effect
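Steps: dispense buffer (Tris pH 8.0, NaCl 300 mM, TCEP 1 mM, BSA, Tween 20); add 5X protein mix (GST-E1A, His-CtBP, 125 nM each); pin 23 nL compound; 2 h at 37 °C, dark; add 5X beads (50 ug/mL); 1 h; read.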
Six1-Eya2 blk – inhibitors of human Six1/Eya2 interaction. 360,000 compounds, 0.56% hits. AlphaScreen GST-Six1/His-Eya2 binding, biochemical; stronger effect = lower value; control for the full effect not named in the record. activity change, % (no concentration beside the values). Q15475+O00167. AID 651725; in the data active = activity change below about -65%; inconclusive = about -30% to -65%; inactive = above about -30%; note: % is set by controls: 0 for no effect and ±100 for the full control effect
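Homogeneous AlphaScreen proximity assay pairing GST-Six1 with His-tagged Eya2 (added as 5X mix: 250 nM and 500 nM) in 50 mM Tris pH 8.0, 300 mM NaCl, 1 mM TCEP. Glutathione donor and nickel acceptor beads; 1 h, 37 °C, dark.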
gsp ag – activates gsp, the McCune-Albright syndrome mutation; gsp mutant cells, cAMP HTRF, 30 min; control for the full effect not named in the record; Potency, µM (doses to about 76.9 µM), inactives show at the highest dose activation (cAMP increase), usual class: activators; 340,000 compounds, 0.13% hits; active = well fitted activation curve with a large enough effect; inconclusive = small, poorly fitted or top-dose-only effect, or another doubt; inactive = no such curve, though single readings can be large or run the other way; cell line not stated here;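 note: phosphodiesterase inhibitor Ro 20-1724 added with compounds to block cAMP breakdown; potency is the fitted concentration of half-maximal effect; nearly all actives have a fitted effect of over 60% in size; about a fifth of the inactives were tested at one dose only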
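Cells stably selected in G418 were plated at 2000/well, grown 16-24 hr, then given compounds in DMSO with the PDE inhibitor […] (300 uM solution added) for 30 min at 37C; cAMP was read by HTRF.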
gsp antag – antagonists of gsp mutant (McCune-Albright syndrome) | AID 624288 | gsp-mutant cells, cAMP HTRF, 30 min; control for the full effect not named in the record | Potency, µM (titrated, usually from 76.9 µM), for the others: top-dose activity change, negative = inhibition, usual class: inhibitors | 340,000 compounds, 0.4% hits; active = falling curve of any shape with a large fitted effect; inconclusive = falling curve, mostly with a smaller effect; inactive = flat or rising curve; cell line not stated here;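 note: intracellular cAMP measured with PDE inhibitor Ro 20-1724 present during compound exposure; potency is the fitted concentration of half-maximal effect; % is set by controls: 0 for no effect and ±100 for the full control effect; nearly all actives have a fitted effect of over 65% in size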
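HTRF cAMP read-out (cAMP-d2 plus anti-cAMP antibody-K in lysis buffer, 30 min RT). Before lysis, cells are exposed to compounds with […] for 30 min at 37C in DPBS containing Ca/Mg, BSA and Tween 20.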
D2 PAM – human D2 receptor positive allosteric modulation; potentiation, % (no concentration beside the values); 360,000 compounds, 0.23% hits; P14416; DiscoveRx D2 beta-arrestin cells, luminescence, 90 min; 100% = 57 uM dopamine signal; active = potentiation of 50% or more; inconclusive = 30% to 50%; inactive = 30% or less;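 note: compound concentration not given in the record; tested on top of an EC20 dose of dopamine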
Target sequence (P14416 whole entry, looked up): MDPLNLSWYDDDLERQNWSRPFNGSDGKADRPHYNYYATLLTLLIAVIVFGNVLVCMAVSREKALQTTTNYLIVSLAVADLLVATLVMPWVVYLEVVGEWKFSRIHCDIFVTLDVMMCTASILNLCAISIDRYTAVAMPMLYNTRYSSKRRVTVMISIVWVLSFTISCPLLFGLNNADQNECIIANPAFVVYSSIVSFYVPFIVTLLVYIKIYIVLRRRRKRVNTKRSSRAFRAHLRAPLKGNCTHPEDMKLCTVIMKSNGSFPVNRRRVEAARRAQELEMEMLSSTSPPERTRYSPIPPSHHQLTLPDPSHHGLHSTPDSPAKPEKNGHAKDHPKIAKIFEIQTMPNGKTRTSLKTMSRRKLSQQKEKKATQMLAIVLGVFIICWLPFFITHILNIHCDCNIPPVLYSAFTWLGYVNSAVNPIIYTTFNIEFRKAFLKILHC
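PathHunter beta-arrestin assay in DiscoveRx D2 cells. Compounds were added with an EC20 of dopamine (50 nM final) for 90 min at 37 deg C. Luminescence was read 1 h after detection reagent, with 57 uM dopamine as the EC100 control.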
D2 agonist – agonists of human D2 dopamine receptor (beta-arrestin); DiscoveRx PathHunter D2 beta-arrestin, luminescence, 90 min; 100% = 57 uM dopamine signal; AID 624465; 360,000 compounds, 0.084% hits; activation, % (test concentration not listed); in the data active = activation above about 40%; inconclusive = about 15% to 40%; inactive = below about 15%; note: compound concentration not given in the record; the text of the record calls up to 30% inactive
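DiscoveRx PathHunter D2 beta-arrestin cells (2,100/well) attached overnight, then compound-stimulated 90 min at 37 C in HBSS/10 mM HEPES/0.1% Tween-20 buffer; beta-galactosidase complementation read by luminescence after 1 h at ambient temperature. Dopamine 57 uM final (EC100) as control.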
Active calls of the source: *; [ ] = remark or other dose.

Results for Cc1cc(C)cc(N(C(=O)Cn2nnc3ccccc32)C(C(=O)NCc2ccco2)c2ccncc2)c1 (stereo not given) ?
CtBP-E1A inh: -1.7; Six1-Eya2 blk: -11.9; gsp ag: inconclusive; gsp antag: -20.3%; D2 PAM: -5.6; D2 agonist: -0.6

Results for Cc1ccc(CN2CCC[C@]3(N[C@H](c4ccccc4)[C@@H]4C(=O)N(C)C(=O)[C@@H]43)C2=O)cc1 ?
CtBP-E1A inh: 4.2; Six1-Eya2 blk: -0.9; gsp ag: 24.8%; D2 agonist: -0.4

How did CCc1ccc2nc3n[nH]c(N)c3cc2c1 do in these assays?
CtBP-E1A inh: -8.1; Six1-Eya2 blk: -3.3; gsp ag: 6.9%; gsp antag: -6.1%; D2 PAM: -0.2; D2 agonist: 1.2

How did Fc1cccc(Cc2c(-c3ccco3)nc3ccc(Cl)cn23)c1 do in these assays?
CtBP-E1A inh: -3.3; Six1-Eya2 blk: inconclusive; D2 PAM: -9.3; D2 agonist: -11.8

What do the screens show for `C=C(C)Cc1c(C)c(C#N)c2[nH]c3ccccc3n2c1=O`?
CtBP-E1A inh: -12.8; Six1-Eya2 blk: -7.2; gsp ag: 1.2%; gsp antag: 2.7%; D2 PAM: -0.3; D2 agonist: 4.0

What do the screens show for `CCOc1cccc(C2/C(=C(\O)c3ccc4c(c3)OCCO4)C(=O)C(=O)N2Cc2ccncc2)c1` (stereo not given)?
CtBP-E1A inh: 5.3; Six1-Eya2 blk: 1.0; gsp ag: inconclusive; gsp antag: 19.3%; D2 PAM: -0.8; D2 agonist: -1.7

Results for COCCn1c(SCC(=O)NC2CCCC2)nc2c(c1=O)SCC2 ?
CtBP-E1A inh: -3.4; Six1-Eya2 blk: 15.5; gsp ag: 2.7%; gsp antag: 4.1%; D2 PAM: -5.7; D2 agonist: -1.2

How did COC(=O)c1cc(C)sc1NC(=O)CN1CCN(C(=O)c2ccco2)CC1 do in these assays?
CtBP-E1A inh: -12.8; Six1-Eya2 blk: -2.5; gsp ag: -3.5%[15.4 µM]; gsp antag: -7.4%; D2 PAM: -8.9; D2 agonist: -1.9

How did CCOc1ccc(NC(=O)CN(C)C(=O)CC2CCCCC2)cc1OCC do in these assays?
CtBP-E1A inh: -5.4; Six1-Eya2 blk: -2.1; gsp ag: 5.8%; gsp antag: 0.8%; D2 PAM: -1.3; D2 agonist: 3.3

Results for COc1ccc(N2CCN(C3CCCN(Cc4ccc(F)cc4Cl)C3)CC2)cc1 (stereo not given) ?
CtBP-E1A inh: inconclusive; Six1-Eya2 blk: -9.0; gsp ag: 8.6%; gsp antag: 4.9%; D2 PAM: -3.3; D2 agonist: -4.0

What do the screens show for `CCN(CC(=O)NCc1ccc(F)cc1)C(=O)/C=C/c1cc(OC)ccc1OC`?
CtBP-E1A inh: -12.0; Six1-Eya2 blk: -2.6; gsp ag: inconclusive; gsp antag: 1.5%; D2 PAM: -5.8; D2 agonist: -1.1

What do the screens show for `O=C(CCCl)Nc1nnc(SCC(=O)NC2CCCC2)s1`?
CtBP-E1A inh: 5.9; Six1-Eya2 blk: -2.2; gsp ag: 4.7%; gsp antag: 5.5%; D2 PAM: -1.4; D2 agonist: 2.1

What do the screens show for `CCC(c1nnc(SCC(=O)Nc2ccc(S(N)(=O)=O)cc2)n1Cc1ccccc1)N(C)C` (stereo not given)?
CtBP-E1A inh: -2.4; Six1-Eya2 blk: 1.2; gsp ag: 10.2%; gsp antag: -2.1%; D2 PAM: -4.4; D2 agonist: -0.1

What do the screens show for `CCN1CCN(C(=O)Cn2ncc3c([nH]c4ccc(C)cc43)c2=O)CC1`?
CtBP-E1A inh: -0.8; Six1-Eya2 blk: 0.6; gsp ag: inconclusive; gsp antag: -1.6%; D2 PAM: -7.0; D2 agonist: 0.3

How did CCSc1nnc(NC(=O)c2cccnc2)s1 do in these assays?
CtBP-E1A inh: 6.7; Six1-Eya2 blk: -0.1; gsp ag: -9.0%; gsp antag: -3.9%; D2 PAM: -4.9; D2 agonist: -0.2

How did COc1ccccc1-c1nnc(SCC(=O)Nc2cccnc2Cl)n1C do in these assays?
Six1-Eya2 blk: -1.9; gsp ag: 27.1%; gsp antag: 2.9%; D2 PAM: -1.7; D2 agonist: -2.3

Results for CCOC(=O)C1=C(COC(=O)COc2ccccc2C#N)NC(=O)NC1C (stereo not given) ?
CtBP-E1A inh: 10.7; Six1-Eya2 blk: -5.2; gsp ag: 3.4%[15.4 µM]; gsp antag: 0.8%; D2 PAM: -4.1; D2 agonist: -4.3

Results for CC1CCCC(NC(=O)CN(C)CC(=O)Nc2ccc(F)cc2)C1C (stereo not given) ?
CtBP-E1A inh: 3.4; Six1-Eya2 blk: 4.7; gsp ag: -48.8%[inhibitor]; gsp antag: 2.0%; D2 PAM: -4.4; D2 agonist: 4.0

What do the screens show for `Cc1onc(-c2ccccc2)c1C(=O)NCc1ccc2c(c1)OCO2`?
CtBP-E1A inh: 8.3; Six1-Eya2 blk: -0.5; gsp ag: -38.1%[inhibitor]; gsp antag: -3.5%; D2 PAM: -1.3; D2 agonist: 0.2

How did CCOc1ccc(OCC)c(NC(=O)C2CCN(S(=O)(=O)c3cnc[nH]3)CC2)c1 do in these assays?
CtBP-E1A inh: -10.4; Six1-Eya2 blk: -7.5; gsp ag: -2.1%; gsp antag: 5.2%; D2 PAM: 0.9; D2 agonist: -1.4

Results for Cc1ccc(S(=O)(=O)N2[C@@H](c3ccc(Br)cc3)C(C(=O)O)=C[C@H]2CC2CCCC2)cc1 ?
CtBP-E1A inh: 4.3; Six1-Eya2 blk: -8.3; gsp antag: -10.3%; D2 PAM: -3.6; D2 agonist: -1.1

What do the screens show for `CN(c1ccccc1)S(=O)(=O)c1cccc(C(=O)OCC(=O)NCc2ccco2)c1`?
CtBP-E1A inh: -8.8; Six1-Eya2 blk: -1.0; gsp ag: -1.8%[15.4 µM]; gsp antag: 3.8%; D2 PAM: -7.3; D2 agonist: -5.5

What do the screens show for `CCc1nnc(NC(=O)CCC(=O)NC2CCCCCC2)s1`?
CtBP-E1A inh: 1.1; Six1-Eya2 blk: 0.4; gsp ag: -46.1%; gsp antag: 22.4%; D2 PAM: -7.8; D2 agonist: -5.0

How did COc1ccc(NC(=O)C(c2cc3c(cc2[N+](=O)[O-])OCO3)N(C)C)cc1 (stereo not given) do in these assays?
CtBP-E1A inh: 3.8; Six1-Eya2 blk: 1.9; gsp ag: 9.4%[15.4 µM]; gsp antag: 5.2%; D2 PAM: -1.5; D2 agonist: -1.5

Results for Cc1ccc(C(=O)N2CCCCC2C(=O)O)cc1S(=O)(=O)N1CCCCC1 (stereo not given) ?
CtBP-E1A inh: 3.0; Six1-Eya2 blk: 0.9; gsp ag: -0.5%[15.4 µM]; gsp antag: 3.5%; D2 PAM: -27.2; D2 agonist: -1.0

How did CC(=O)N(NC(=O)c1ccc(C)cc1)C1CC(=O)N(c2ccccc2Cl)C1=O (stereo not given) do in these assays?
CtBP-E1A inh: -9.9; Six1-Eya2 blk: 3.6; gsp ag: -2.7%; gsp antag: -1.7%; D2 PAM: -9.6; D2 agonist: 0.3

Results for CN(C)S(=O)(=O)N1CCC(c2ccc(F)cc2)C(COc2ccc3c(c2)OCO3)C1 (stereo not given) ?
CtBP-E1A inh: inconclusive; Six1-Eya2 blk: inconclusive; gsp ag: -1.0%; gsp antag: -9.7%; D2 PAM: 16.4; D2 agonist: 0.0

What do the screens show for `COc1ccc(/C=C2\SC(=O)N(CCNC(=O)CN3C(=O)NC4(CCCC4)C3=O)C2=O)cc1`?
CtBP-E1A inh: -6.0; Six1-Eya2 blk: 2.7; gsp ag: -70.8%[inhibitor]; gsp antag: -1.9%; D2 PAM: -16.2; D2 agonist: 2.4

What do the screens show for `CCN(C(=O)COC(=O)c1cccc(C)c1[N+](=O)[O-])c1c(N)n(Cc2ccccc2)c(=O)[nH]c1=O`?
CtBP-E1A inh: -4.4; Six1-Eya2 blk: 1.7; gsp ag: -49.6%[inhibitor]; gsp antag: 3.0%; D2 PAM: 20.4; D2 agonist: -2.9

How did O=C(Nc1ccc(S(=O)(=O)Nc2ncccn2)cc1)c1cccc(S(=O)(=O)N2CCCC2)c1 do in these assays?
CtBP-E1A inh: 8.1; Six1-Eya2 blk: -3.5; gsp ag: -3.5%[15.4 µM]; gsp antag: 4.6%; D2 PAM: -2.7; D2 agonist: -1.6

How did CC(C)c1ccc(NC(=O)N2CCC(c3nc4ccccc4o3)CC2)cc1 do in these assays?
CtBP-E1A inh: -6.1; Six1-Eya2 blk: -3.8; gsp ag: 3.0%; gsp antag: -27.7%; D2 PAM: -20.1; D2 agonist: 2.5

How did COc1ccc(/C=C2\N=C(C)N(c3ccc4ccccc4c3)C2=O)cc1OC do in these assays?
Six1-Eya2 blk: -3.6; gsp ag: 8.4%; gsp antag: -10.0%; D2 PAM: -7.4; D2 agonist: -4.0

What do the screens show for `CC1(C(=O)NS(=O)(=O)c2ccc(Cl)s2)CCN1C(=O)C1(c2ccc(Cl)cc2)CCC1` (stereo not given)?
CtBP-E1A inh: 3.9; Six1-Eya2 blk: -3.9; D2 PAM: -4.9; D2 agonist: 3.8

Results for c1ccc(SCc2nc3ccccc3s2)nc1 ?
CtBP-E1A inh: 11.8; Six1-Eya2 blk: 9.7; gsp ag: 27.9%; gsp antag: 6.0%; D2 PAM: -4.8; D2 agonist: 6.3

Results for O=C(NCc1ccccc1)c1ccc(Cl)nc1 ?
CtBP-E1A inh: 4.6; Six1-Eya2 blk: 4.5; gsp ag: -16.8%[15.4 µM]; gsp antag: -12.1%; D2 PAM: -7.4; D2 agonist: -1.6

What do the screens show for `COc1cc(C(=O)NC(=S)Nc2ccccc2N2CCCC2)cc(OC)c1OC`?
CtBP-E1A inh: inconclusive; Six1-Eya2 blk: inconclusive; gsp ag: 29.9%; gsp antag: 5.4%; D2 PAM: -22.7; D2 agonist: -4.5

How did CCOC(=O)C(NCc1ccccc1OC)(NC(=O)CC)C(F)(F)F (stereo not given) do in these assays?
CtBP-E1A inh: 2.8; Six1-Eya2 blk: 0.0; gsp ag: -48.3%[inhibitor]; gsp antag: 18.9%; D2 PAM: -9.0; D2 agonist: -2.5

What do the screens show for `CCOC(=O)N1CCN(C(=O)COC(=O)CSc2cc(C)c(Br)cc2C)CC1`?
CtBP-E1A inh: 3.2; Six1-Eya2 blk: -1.9; gsp ag: 46.8%[15.4 µM]; gsp antag: -4.6%; D2 PAM: 7.4; D2 agonist: -3.5

How did CCc1ccc2c(c1)c(N=NC1=NC(=O)CS1)c(O)n2C do in these assays?
CtBP-E1A inh: -0.6; Six1-Eya2 blk: 6.3; gsp ag: 13.2%; gsp antag: -20.8%; D2 PAM: 2.7; D2 agonist: -5.6

Not a hit list; overall some 1.4% were active at least once.
